# Sfp inh – Sfp phosphopantetheinyl transferase inhibition. Biochemical Sfp PPTase activity, qHTS. Potency, µM, without a hit: max response, negative = inhibition, most hits filed as inhibitors. hit rate 3.5% among 310,000. AID 1490; active = well fitted inhibition curve with a large enough effect; inconclusive = small, poorly fitted or top-dose-only effect, or another doubt; inactive = no such curve, though single readings can be large or run the other way;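 note: the enzyme is Sfp with the accession as filed and its product quenches rhodamine fluorescence; potency is the fitted concentration of half-maximal effect; 0% = enzyme reaction without inhibitor and -100% = no enzyme wells; top concentration of the series not given in the record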
#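 After 15 min at room temperature with compound, 15 nM Sfp received 5 uM rhodamine-CoA plus 12.5 uM BHQ-2-ybbR (50 mM Hepes pH 7.6, 10 mM MgCl2). Rate came from the fluorescence difference over 30 min, ex 525/em 598 nm.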
# TRPML1 blocker – blocks the human TRPML1 channel | activity change, negative = inhibition, % (test concentration not listed) | TRPML1-inducible cells, Ca2+ dye fluorescence, FDSS; active compounds read low; inhibition of EC80 agonist-evoked calcium signal | AID 624415 | hit rate 0.02% among 390,000; in the data active means activity change below about -50%; inconclusive means about -30% to -50%; inactive means above about -30%;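 note: stimulus is agonist 54-4 at its EC80 concentration; % is set by controls: 0 for no effect and ±100 for the full control effect; compound concentration not given in the record; the text of the record puts the active cut at -80%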
#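 Tet-induced TRPML1-DL cells loaded with Ca8 no-wash calcium dye were read kinetically on FDSS. Compound addition was followed by EC80 agonist 54-4 (4 uM final); inhibition was read over 110 s.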
# ClpP mod – qHTS Assay for Activators of ClpP; ATP-dependent Clp protease proteolytic subunit (Bacillus subtilis (strain 168)), P80244; purified B. subtilis ClpP, FRET peptide cleavage, 20 min; Potency, µM (doses to about 57.5 µM), inactives show top-dose activity change, negative = active; hit rate 1.9% among 340,000; AID 651965, 2013; active = well fitted falling curve with a large enough effect; inconclusive = small, poorly fitted or top-dose-only effect; inactive = no such curve, though single readings can be large or run the other way; note: potency is the fitted concentration of half-maximal effect; the source files actives as falling curves though it sought activators and does not explain the sign; nearly all actives have a fitted effect of over 65% in size; many hits overshoot -100%
# Target sequence (P80244 whole entry, looked up): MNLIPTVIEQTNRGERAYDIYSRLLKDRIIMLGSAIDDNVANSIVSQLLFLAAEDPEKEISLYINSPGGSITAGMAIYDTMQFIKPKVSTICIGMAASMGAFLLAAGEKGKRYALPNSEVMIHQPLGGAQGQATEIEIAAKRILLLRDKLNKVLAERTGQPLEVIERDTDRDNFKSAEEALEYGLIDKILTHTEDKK
#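 FRET quenching reversal measured ClpP activation: 10 microg/mL B. subtilis ClpP at pH 8 with the FRET-FV decapeptide, read at 430 nm after 320 nm excitation. The 20-min minus 0-min signal was scaled between DMSO/no-enzyme wells and ADEP (5.8 microM final).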
# TRPV1 PAM – potentiators of human vanilloid receptor 1 (TRPV1). Q8NER1. TRPV1-expressing cells, Fluo-8 calcium influx, capsaicin EC20 potentiation; host cell line not named in the record; control for the full effect not named in the record. potentiation, % at 8.33 µM. hit rate 0.02% among 320,000. AID 540277; active means potentiation above 80%; inconclusive means 30% to 80%; inactive means below 30%; note: 0% is about no effect
# Target sequence (Q8NER1 whole entry, looked up): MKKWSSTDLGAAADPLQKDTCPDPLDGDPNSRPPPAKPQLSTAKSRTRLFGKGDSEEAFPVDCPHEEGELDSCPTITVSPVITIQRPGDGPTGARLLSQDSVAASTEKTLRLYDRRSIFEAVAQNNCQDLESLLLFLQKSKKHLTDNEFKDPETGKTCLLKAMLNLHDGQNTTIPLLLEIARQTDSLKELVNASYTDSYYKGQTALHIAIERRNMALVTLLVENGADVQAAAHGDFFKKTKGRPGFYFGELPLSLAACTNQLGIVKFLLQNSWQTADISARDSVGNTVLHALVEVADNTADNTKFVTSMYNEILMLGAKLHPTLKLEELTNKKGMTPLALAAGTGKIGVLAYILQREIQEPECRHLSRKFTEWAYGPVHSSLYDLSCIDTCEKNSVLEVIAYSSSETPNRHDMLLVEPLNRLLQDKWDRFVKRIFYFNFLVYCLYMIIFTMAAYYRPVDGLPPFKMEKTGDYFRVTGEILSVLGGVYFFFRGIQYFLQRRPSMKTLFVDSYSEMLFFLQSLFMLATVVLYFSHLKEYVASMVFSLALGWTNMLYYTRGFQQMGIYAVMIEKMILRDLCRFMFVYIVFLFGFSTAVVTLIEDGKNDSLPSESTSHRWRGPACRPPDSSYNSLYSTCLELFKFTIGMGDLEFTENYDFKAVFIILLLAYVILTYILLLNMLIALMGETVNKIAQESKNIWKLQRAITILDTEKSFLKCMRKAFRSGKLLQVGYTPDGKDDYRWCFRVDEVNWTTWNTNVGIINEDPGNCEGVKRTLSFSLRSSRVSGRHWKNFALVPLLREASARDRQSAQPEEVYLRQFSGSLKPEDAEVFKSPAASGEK
#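 Cells expressing TRPV1 were dye-loaded with Fluo-8 and read kinetically: 10 s baseline, 3 min after compound (agonist portion), then 2 min after EC20 capsaicin (allosteric enhancer portion). Calcium-bound dye fluorescence at 480/520 nm.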
# Menin-MLL FL inh – menin-MLL binding inhibition, fluorescein peptide. 290,000 tested, under 10 active. FP activity change, % at 61.4 µM. Fluorescence polarization, fluorescein-MLL peptide displacement from menin; inconclusive = falling polarisation curve, or a change in total fluorescence; inactive = total fluorescence flat and polarisation flat or rising; no compound was filed as active; the % refers to the polarisation; negative = inhibition;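 note: % of control where 0% means no effect; inhibitors lower the polarisation; unlabelled MLL peptide was the positive control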
# PINK1 modulator – PINK1 expression modulation; PINK1 immunofluorescence, high-content cytometry, 24 h; Potency, µM (titrated, usually from 76.6 µM), without a hit: at the top dose activation (PINK1 increase), usual class: activators; hit rate 0.2% among 410,000; AID 624263; active = well fitted activation curve with a large enough effect; inconclusive = small, poorly fitted or top-dose-only effect; inactive = flat fitted curve, though single readings scatter; cell line not stated here;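 note: potency is the fitted concentration of half-maximal effect; % of control where 0% means no effect; nearly all actives have a fitted effect of over 65% in size; a mitochondrial uncoupler was the plate control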
#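 Measures PINK1 amount and localization on or inside mitochondria by immunofluorescence. Stable cells get compounds at 5 concentrations for 24 hours before fixation and staining; CCCP controls included.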
# TRPML1 agonist – activates the human TRPML1 channel. Q9GZU1. TRPML1-expressing cells, Ca2+ dye fluorescence, FDSS; host cell line not named in the record; reference of the full effect not given here. activation, % (no concentration beside the values). hit rate 0.12% among 410,000. AID 624414; in the data active = activation above about 50%; inconclusive = about 30% to 50%; inactive = below about 30%; note: 0% is about no effect; the text of the record puts the active cut at 80%
#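 Calcium fluorescence on an FDSS kinetic reader gave the read-out. Tet-induced TRPML1-DL cells were plated overnight, dye-loaded (Ca8 with quencher, 45-90 min, room temperature, dark), then read 110 s after compound addition, and again 110 s after 4uM final 54-4 (EC80).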
# Active calls of the source: *; ? = inconclusive; / = no result given; & = joins results of further samples; [ ] = another dose, or the depositor's remark.
# Under each structure – Sfp inh	TRPML1 blocker	ClpP mod	TRPV1 PAM	Menin-MLL FL inh	PINK1 modulator	TRPML1 agonist
CCC1(c2ccccc2)NC(=O)N(CC(=O)Nc2ccccc2C(=O)NC2CC2)C1=O (stereo not given)
→ /	-5	-3.2%	3	/	4.8%	0.4
Cc1cnc(C(=O)OCC(=O)NC(C)C)cn1
→ 10%	4	-1.1%	28	-10	5.3%[38.3 µM]	-0.5
Cc1ccc(-n2c(C)cc(/C=N/NC(=O)c3ccncc3)c2C)cc1
→ -2%	-9	0.1%	-1	0.8	-6.4%[38.3 µM]	0.0
CN1CCC(NC(=O)CCc2ccccc2)CC1
→ 5%	-9	0.8%	-3	-1.8	0.4%	-0.3
O=S(=O)(N1CCCCCC1)N1CCNCC1
→ 3%	-6	0.2%	24	4.3	0.1%	0.6
Cc1ccc2nsnc2c1S(=O)(=O)N1CCN(CCc2ccccc2)CC1
→ 1%	-5	-1.1%	0	1.1	-1.7%[38.3 µM]	-1.0
Cc1cc(N2C(=O)C(=O)/C(=C(/O)c3ccc(F)cc3)C2c2ccc(Cl)cc2)no1 (stereo not given)
→ 18%	3	0.6%	2	0.2	0.9%	0.0
Cn1cccc1C(=O)NC(=O)COC(=O)c1ccccc1O
→ 5%	19	?	-5	5.0	0.3%	0.0
Cc1nnc(NC(=O)c2ccc(-c3cccc(C(F)(F)F)c3)o2)s1
→ 7%	-2	-6.6%	9	3.1	5.7%	0.2
COc1ccc2c(=O)cc(CO)oc2c1
→ /	4	-4.5%	/	/	-1.5%	-0.9
O=[N+]([O-])c1cc(-c2nc(-c3ccccc3)no2)ccc1N1CCCCC1
→ /	0	-0.3%	/	/	0.7%	-0.8
Cc1nc(SCC(=O)N2CC(C)OC(C)C2)nc(C)c1C (stereo not given)
→ -1%	-3	-2.0%	-8	0.4	-1.3%	0.1
O=C(Nc1ccccc1)N1CCC(C(=O)N(Cc2ccco2)Cc2cccs2)CC1
→ 3%	14	1.8%	13	3.0	-0.2%	1.0
COc1cccc(N2C(=O)CC(NNC(=O)c3cccs3)C2=O)c1 (stereo not given)
→ 4%	10	?	7	-3.6	-2.0%	-0.4
COc1ccc(Cl)cc1-c1nc(SCC(=O)NC2CC2)n[nH]1
→ 9%	9	/	18	-4.6	2.1%	-0.3
CC1Sc2ccc(S(=O)(=O)CCC(=O)NC3CCCCC3C)cc2NC1=O (stereo not given)
→ 3%	1	-0.1%	-1	/	0.2%	0.5
CC(=O)N1N=C(c2ccc(C)cc2)CC1c1ccc2c(c1)OCO2 (stereo not given)
→ 0%	-1	0.5%	28	1.3	-0.1%	-0.9
O=C(NCc1ccccc1)c1ccc(C2SCC(=O)N2Cc2ccccc2)cc1 (stereo not given)
→ -5%	3	-1.7%	-7	3.7	-0.4%	-0.4
CCC/C=C(\CCC)C(NC(=O)OCC(C)C)c1ccc(C(=O)OC)cc1 (stereo not given)
→ 28%&15%	2	-2.6%	-4	1.3&-0.2	16%	0.9
COc1ccc(OC)c(NC(=O)CC(Cc2ccccc2OC)C(=O)O)c1 (stereo not given)
→ 14%	-10	-0.8%	-6	1.8	2.9%[38.3 µM]	0.7
CCOc1ccc(C2/C(=C(\O)c3c(C)[nH]c(C(=O)OC)c3C)C(=O)C(=O)N2CCN(C)C)cc1 (stereo not given)
→ -19%	5	-1.0%	15	-1.0	-1.0%[38.3 µM]	2.3
Cc1c(CN2CCC(C(=O)Nc3cccc(-c4cccc(Cl)c4)c3)CC2)cnn1C
→ 1%	1	-2.8%	-3	-0.2	0.6%	1.0
COc1ccc(NC(=O)c2sc3cc(C(F)(F)F)cnc3c2-c2cccs2)cc1
→ 13%	11	-3.4%	3	0.0	10%	0.3
CCOC(=O)c1cc(-c2ccccc2)nc2c1c(C)nn2-c1ccccn1
→ -2%	67	?	-12	2.3	-3.5%	1.9
COc1cc(/C=N/Nc2nc(Nc3ccc(C)cc3)nc(-n3nc(C)cc3C)n2)cc(OC)c1OC
→ 2%	-2	28µM*	-7	5.2	12%[38.3 µM]	2.0
CCOc1ccc(-c2csc3nc[nH]c(=O)c23)cc1
→ 9%	-14	/	-12	2.3	-1.7%	1.4
OC(COc1ccc(Cl)cc1Cl)Cn1ccnc1 (stereo not given)
→ 17%	-5	-0.6%	11	1.5	-1.0%	-0.8
Clc1nc(NCc2cccnc2)nc(N2CCOCC2)n1
→ 5%	-13	0.1%	-8	5.3	-0.8%	1.2
COc1ccc(-c2nnn(CC(=O)N(Cc3cccs3)C(C)C(=O)NCCC(C)C)n2)cc1OC (stereo not given)
→ 9%	-7	0.8%	-1	-1.6	0.0%	-0.1
Cc1cc(C)n(/N=C/c2ccccc2O)c(=O)c1
→ 5%	32	/	-2	2.0	2.4%	-0.5

# Record cards, as listed above.
# Cc1nnc(NC(=O)c2ccc(-c3cccc(C(F)(F)F)c3)o2)s1 is listed as Sfp inh: 7%; TRPML1 blocker: -2; ClpP mod: -6.6%; TRPV1 PAM: 9; Menin-MLL FL inh: 3.1; PINK1 modulator: 5.7%; TRPML1 agonist: 0.2
# COc1cc(/C=N/Nc2nc(Nc3ccc(C)cc3)nc(-n3nc(C)cc3C)n2)cc(OC)c1OC is listed as Sfp inh: 2%; TRPML1 blocker: -2; ClpP mod: 28µM*; TRPV1 PAM: -7; Menin-MLL FL inh: 5.2; PINK1 modulator: 12%[38.3 µM]; TRPML1 agonist: 2.0

# Remaining list, next part
# Under each structure – Sfp inh	TRPML1 blocker	ClpP mod	TRPV1 PAM	Menin-MLL FL inh	PINK1 modulator	TRPML1 agonist
Cc1ccnc(NC(=O)CNC(=O)c2ccccc2)c1
→ /	-1	/	9	/	-0.2%	6.6
Cc1cccc2cc(COC(=O)C(C)C)c(=O)[nH]c12
→ 9%	-11	-26%	1	7.8	-0.2%	-0.7
COc1cc(NC(=O)Cn2c(C)cc(C)c(C#N)c2=O)cc(OC)c1
→ /	11	?	/	/	-1.4%	0.0
COC(=O)c1c(C)n(-c2ccc(OC)cc2)c2ccc(O)cc12
→ 45µM*	-14	-20%	-15	-0.2	6.1%	2.4
COc1cc(CCc2ccccc2)c(C(=O)O)c(O)c1C/C=C(/C)CCC=C(C)C
→ /	7	?	/	/	?	-0.5
CC(C)OC(=O)c1cccc(C(=O)Oc2ccc(Br)cc2)n1
→ 7%	-13	-0.1%	?	5.9	7.0%[38.3 µM]	1.6
CCc1cc(C(=O)Nc2cc(S(=O)(=O)N3CCCCC3)ccc2N2CCN(C)CC2)sc1C
→ /	12	-27%	/	/	16%	0.5
C#CCN(C(=O)CC1C(=O)NCCN1C/C=C/c1ccccc1)C1CCCCC1 (stereo not given)
→ 0%	-14	-0.2%	15	1.4	1.2%	-1.4
O=C(NCc1cccnc1)c1ccc(-c2ccc(F)c(F)c2)c2ccoc12
→ /	/	4.8%	/	/	2.4%	-0.5
Cc1cc(C(=O)OC(C)C(=O)NC2CCCCC2C)c2ccccc2n1 (stereo not given)
→ /	8	0.0%	/	/	0.7%	-0.6
CC(C)c1ccc(Nc2nc(Cl)nc(Cl)n2)cc1
→ -5%	/	-0.3%	5	-8.1	1.5%	/
CN1CCN(C(=O)c2ccccc2N(Cc2ccccc2)S(=O)(=O)c2ccccc2)CC1
→ 2%	?	-2.3%	-24	-2.3	-4.7%[38.3 µM]	0.0
Cc1ccc(NS(=O)(=O)c2cc(C(N)=O)ccc2C)cc1
→ 12%	2	0.0%	2	-2.3	0.1%[38.3 µM]	0.0
COC(=O)c1c(C)[nH]c(C)c1C(=O)c1ccccc1Cc1ccccc1
→ -12%&2%&0%	-13	-5.9%&-1.6%	/	-2.2&0.1	-0.3%&0.2%	14&5.3
COCCNC(=O)c1ccc2c(c1)nc(C)n2-c1cccc(Cl)c1
→ 17%	/	-2.4%	2	4.6	0.1%	/
COc1cc(-c2nc(C(=O)NCC3CCCO3)cc3c2[nH]c2ccccc23)cc(OC)c1OC (stereo not given)
→ -17%	/	3.8%	13	4.5	-1.1%	/
O=C(Nc1ccc(OCc2ccccc2)cc1)Nc1nnc([C@H]2C[C@H](O)[C@@H](CO)O2)s1
→ /	/	-2.6%	/	/	2.7%	-0.6
O=C(C(Sc1ccccc1)c1ccccc1)N1CCN(c2ccccc2)CC1 (stereo not given)
→ 12%	2	-1.6%	-7	-2.0	-2.4%	-0.1
CCOC(=O)C1=NOC(CNC(=O)c2ccccc2Cl)C1 (stereo not given)
→ 22%	31	/	7	-4.1	0.7%	0.2
CCOc1ccc(C(=O)C(C)OC(=O)c2nc(Cl)ccc2Cl)cc1 (stereo not given)
→ /	-2	1.8%	2	/	-0.6%	0.7
Cc1[nH]nc(N=Cc2c(O)n(C)c(=O)n(C)c2=O)c1-c1ccccc1
→ -5%	-2	16%	15	3.8	2.7%	-0.7
C[C@H]1CN([C@@H](C)CO)C(=O)CCCn2cc(nn2)CO[C@@H]1CN(C)S(=O)(=O)c1ccc(-c2ccccc2)cc1
→ /	-7	0.6%	/	/	-1.9%	9.7
CCc1ccc(NC(=O)CSc2nnc(Cn3c(=O)sc4ccccc43)n2C)cc1
→ 7%	-18	0.1%	15	-2.0	-1.0%	2.0
CCOC(=O)C1(Cc2cccc(OC)c2)CCN(Cc2ccccc2OC)CC1
→ 7%	14	/	-1	-0.3	7.8%	-0.1
O=C(Nc1ccccc1N1CCCC1)C1CCCO1 (stereo not given)
→ /	-4	-4.8%	4	/	0.1%	0.6
COc1ccc(NC(=O)c2ccco2)cc1NC(=O)c1cc(OC)c(OC)c(OC)c1
→ /	5	1.2%	/	/	1.4%	0.4
Cc1ccc(OCC(=O)O/N=C(\N)c2ccccn2)cc1
→ ?	14	-2.1%	9	0.7	-0.5%	-0.7
O=C(COC(=O)C1CCCCC1C(=O)N1CCc2ccccc21)NCc1ccco1 (stereo not given)
→ -16%	4	0.5%	-6	3.1	-1.8%	-0.1
CCOC(=O)C1(CC2CCCCO2)CCN(Cc2c(C)cc(C)cc2-n2cccn2)CC1 (stereo not given)
→ -23%	-1	/	3	0.1	0.1%	0.3
COc1cc(C(=O)NCC(=O)OCC(=O)Nc2ncc(Cl)cc2Cl)cc(OC)c1OC
→ -12%	2	/	3	?	1.8%	0.5
